StopGo FLuc – FMDV 2A StopGo reporter, firefly signal; HEK cells with a luciferase reporter of 2A StopGo recoding; Potency, µM (top dose mostly 57.5 µM), for the others: at the highest dose signal change, negative = less light; 120,000 tested, 0.23% active; active = well fitted falling curve with a large enough effect; inconclusive = small, poorly fitted or top-dose-only effect; inactive = no such curve, though single readings can be large or run the other way; note: nearly all actives have a fitted effect of over 60% in size; overnight with compound
2A Renilla – FMDV 2A StopGo reporter, Renilla signal. HEK cells with a luciferase reporter of 2A StopGo recoding. Potency, µM (doses to about 57.5 µM), for the others: at the top dose signal change, negative = less light. 120,000 tested, 0.32% active; active means well fitted falling curve with a large enough effect; inconclusive means small, poorly fitted or top-dose-only effect; inactive means no such curve, though single readings can be large or run the other way; note: nearly all actives have a fitted effect of over 55% in size; overnight with compound
* hit, by the source's call; u = inconclusive; [ ] = remark or other dose. % is set by controls: 0 for no effect and ±100 for the full control effect; potency is the fitted concentration of half-maximal effect.

SMILES | StopGo FLuc | 2A Renilla
Cc1ccc(NC(=O)c2c(C)nc3sc(C(=O)Nc4ccc(F)cc4)c(N)c3c2-c2ccc(Cl)cc2)c(C)c1 | -2.6% | -8.6%
Cc1ccc2nc(-c3ccc(C)s3)cc(C(=O)NCCN3CCOCC3)c2c1 | 81.8%[activator] | 47.5%
CC(C)CC(=O)Nc1ccc(Cl)c(-c2nc3ccccc3[nH]2)c1 | -3.5% | 6.8%
CC(=O)c1c(C)[nH]c(C(=O)c2cc3cc(Br)ccc3o2)c1C | 199.8%[activator] | 54.8%[activator]
N#CNC(=Nc1ccc(F)cc1)SCc1ccccc1 | 9.6% | 9.7%
O/N=C/c1ccc(OCc2ccc(Br)cc2)cc1 | u | -12.6%[1.06 µM]
Cc1ccc(C2CC(=O)CC(c3ccc(C)cc3)C2(C#N)C(N)=O)cc1 (stereo not drawn) | -3.5% | 5.5%
COc1ccccc1-c1nnc(SCc2csc(Nc3ccc(C)cc3)n2)o1 | 23.6% | 0.9%
Cn1c(SCC(=O)N2CCCC2)nc2ccsc2c1=O | 0.0% | 5.7%
O=C(CSCc1ccccc1Br)Nc1cccc(F)c1 | 109.4%[activator] | 106.6%[activator]
Cc1c(-c2ccc(Br)cc2)c(=O)oc2ccc(OC(=O)N(C)C)cc12 | 37.3%[activator] | 13.5%
Cc1cc(N2CCC(C(=O)Nc3ccccc3Cl)CC2)n2nc(C)c(-c3ccc(Cl)cc3)c2n1 | -10.0% | -8.7%
COc1cc(C(=O)Oc2c(Sc3ccccc3)c(C)nn2-c2ccccc2)cc(OC)c1OC | -12.2% | -1.9%
Fc1ccc(NC(=S)NCC(c2ccccc2)c2ccccc2)cc1 | u | 77.4%[activator]
O=C(COc1ccccc1C(=O)Nc1ccccc1)NC(=O)NCc1ccco1 | 37.8%[activator] | 24.2%
N#C/C(=C\c1ccc(OC(=O)c2ccc(Br)cc2)cc1)C(=O)Nc1ccccc1C(F)(F)F | 0.0% | 9.0%
COc1cccc(CNC(=O)CCS(=O)(=O)c2cc3c(cc2C)NC(=O)CO3)c1 | 2.6% | 2.3%
COc1ccc(C2C(C#N)=C(N)Oc3n[nH]c(-c4ccc(C)cc4)c32)cc1O (stereo not drawn) | 33.2% | 13.3%
CCN(c1ccccc1)S(=O)(=O)c1nnc(NC(=O)COc2cccc(C)c2)s1 | -5.3% | 4.5%
Cc1c(C(=O)Nc2cccc(S(=O)(=O)N3CCCC3)c2)oc2c(F)cccc12 | 8.5% | 4.9%
CCc1cccc(NC(=O)Cn2c(=O)n3nc(-c4cccc(F)c4)nc3c3ccccc32)c1 | -10.3% | -9.1%
CC[C@H](C)C(=O)O[C@H]1C[C@@H](C)C=C2C=C[C@H](C)[C@H](CC[C@@H]3C[C@@H](O)CC(=O)O3)[C@H]21 | 26.9%[11.5 µM] | -14.2%
CCc1cccc(NC(=O)CC(c2ccc(OC)cc2)N2Cc3ccccc3C2=O)c1 (stereo not drawn) | -18.7% | 25.3%
Cc1c(C(=O)Nc2ccccc2Cl)sc2ncnc(N(C)C3CCCCC3)c12 | 9.4% | -6.7%
COc1ccc(-c2csc3ncn(-c4ccccc4)c(=O)c23)cc1OC | 18.6% | 3.2%
COc1ccccc1CNC(=O)CCc1nnc2ccc(NCc3ccc4c(c3)OCO4)nn12 | 4.9% | 10.1%
CC(C)C(=O)Nc1ccc2c(ccn2CCN2CCOCC2)c1 | -2.1% | -9.4%
O=C(NCc1ccc(Cl)cc1)c1ccc2oc(=O)n(Cc3ccccc3)c2c1 | -9.9% | -9.0%
Cc1ccccc1NC(=O)Nc1nnc(N(C)Cc2ccccc2)s1 | 8.4% | -6.4%
CCOc1ccc(C(=O)Nc2ccc(O)c(-c3nc4ccccc4o3)c2)cc1Cl | 3.7% | -4.1%
CC1(C)Cc2c(sc3c2c(=O)n(CCCO)c(=O)n3Cc2ccccc2)CO1 | 28.7% | 31.7%[activator]
O=Cc1cc(Cl)ccc1O | 7.5% | 1.2%
CCNC(=O)C1CCN(Cc2nnnn2-c2ccccc2)CC1 | 0.0% | -1.2%
Cc1cc(OCC(=O)N2CCCCC2CCN2CCOCC2)ccc1Cl (stereo not drawn) | -8.3% | -7.2%
C=C(C)Cn1c(SCCOCC)nc2c1c(=O)[nH]c(=O)n2C | 9.4% | 2.1%
CC(C)Cc1nnc2sc(-c3cc4ccccc4[nH]3)nn12 | 123.1%[activator] | -5.6%
Cc1nc(N2CCOCC2)c2c(C(=O)NCCc3ccccc3)c(C)oc2n1 | 49.8%[activator] | 2.3%
Cc1cccc(-n2cccc2C=O)c1C | -7.2% | -12.5%
COc1ccccc1NC(C)(C)c1nnnn1-c1ccc(OC)c(OC)c1 | -9.3% | 28.2%
CCN(CC)CCCNC(=O)c1nn(-c2ccc(OC)c(Cl)c2)c(=O)c2c1c1ccccc1n2C | -19.8% | -7.9%
COC(=O)c1ccc(OC)c(Cn2c(=O)n(-c3cccc(Cl)c3)c(=O)c3c4c(sc32)CN(C(C)=O)CC4)c1 | -19.1% | -7.4%
Cc1ccc(C)c(N2CCN(C(=O)c3ccc4c(=O)n(CCc5ccccc5)c(=O)[nH]c4c3)CC2)c1 | u | -10.4%
Cc1ccc2c(CN3C(=O)c4ccccc4S3(=O)=O)cc(=O)oc2c1C | u | -11.9%
N#Cc1ccc(/C=C2\Oc3cc(O)ccc3C2=O)cc1 | 117.5%[activator] | 12.9%
CCCCCCc1ccc(-c2ccc(CCCCCC)cn2)cc1 | 24.9% | -17.1%
N#CC1=C(N)N(c2cccc(F)c2)C2=C(C(=O)OC2)C12C(=O)N(Cc1ccccc1F)c1ccccc12 (stereo not drawn) | -15.1% | -3.4%
COC(=O)c1cc(-c2ccc(C)c(C)c2)nc2ccccc12 | 127.0%[activator] | -4.0%
O=C(NC1CCCC1)c1ccc(Br)cc1 | 0.0% | 3.0%
COc1ccccc1N1CCN(C(=O)c2cnn(C(C)(C)C)c2C2CCN(C(=O)OC(C)(C)C)CC2)CC1 | 10.9% | 1.9%
C/C(=N\Oc1cc(N)cc([N+](=O)[O-])c1)c1ccncc1 | 130.4%[activator] | 3.2%
CCCCOc1ccc(CNC(=O)c2ccc(NC(=O)N3CCCCc4ccccc43)cc2)cc1 | -13.9% | -5.6%
CC(=O)N1CCC(C(=O)NCc2ccccc2)(N(C(=O)c2ccc(C)cc2)c2cccc(C)c2)CC1 | -7.7% | 4.5%
Cc1nn(Cc2cccc(Cl)c2)c(C)c1NS(=O)(=O)c1c(C)nn(C(F)F)c1C | 1.6% | 60.5%[activator]
Cc1ccc(NC(=O)c2nn(C)c(=O)c3ccccc23)cc1Cl | 67.1%[activator] | 22.7%
Cc1ccc(Cl)cc1N(C)C(=O)c1cn(C2CCCCC2)c(=O)c2c1c1ccccc1n2C | -11.3% | -4.2%
COc1ccc(NC(=O)CSc2nncn2Cc2ccco2)cc1 | 90.5%[activator] | 20.6%
Oc1c(Cl)cc(Cl)c(Cl)c1Cc1c(O)c(Cl)cc(Cl)c1Cl | -34.4%[11.5 µM] | 10µM*
COc1ccccc1CNC(=O)Cc1csc2nc(-c3ccc(F)cc3)cn12 | 20.3% | -5.9%
O=S(=O)(NCC(c1ccco1)N1CCN(c2ccc(F)cc2)CC1)c1ccccc1 (stereo not drawn) | -9.5% | -2.5%
CCc1cc(C(=O)OCC(=O)N2CCC(c3ccccc3)=N2)sc1C | u | u

Four entries drawn at random from those above, as already listed:
SMILES | StopGo FLuc | 2A Renilla
COc1ccccc1CNC(=O)Cc1csc2nc(-c3ccc(F)cc3)cn12 | 20.3% | -5.9%
Cc1c(C(=O)Nc2ccccc2Cl)sc2ncnc(N(C)C3CCCCC3)c12 | 9.4% | -6.7%
O=C(NCc1ccc(Cl)cc1)c1ccc2oc(=O)n(Cc3ccccc3)c2c1 | -9.9% | -9.0%
CCc1cc(C(=O)OCC(=O)N2CCC(c3ccccc3)=N2)sc1C | u | u

Continued.
SMILES | StopGo FLuc | 2A Renilla
CCC(=O)N1CCc2cc(Br)cc(S(=O)(=O)CCC(=O)NCc3ccc(Cl)cc3)c21 | -25.1% | 61.8%[activator]
COc1ccc(CC(=O)N2CCN(CC(=O)NC(N)=O)CC2)cc1 | -12.7% | -8.2%
Cc1oc2ncn(C)c(=O)c2c1C(=O)N1CCN(c2cccc(C(F)(F)F)c2)CC1 | -3.3% | -14.3%
Cc1cc2oc(=O)c(CC(=O)O)c(C)c2c2occ(-c3ccc(F)cc3)c12 | 41.6%[activator] | -15.1%
O=C(c1cc(=O)c2ccccc2o1)N1CCN(c2cccc(Cl)c2)CC1 | 3.3% | 0.9%
Cc1ccc(N2C(=O)N(Cc3ccc4c(c3)OCO4)c3ccccc3S2(=O)=O)c(C)c1 | 14.4% | 28.2%
CC1(C)CC(=O)C2=C(C1)OC(N)=C(C#N)C2c1cccc(Cl)c1 (stereo not drawn) | -7.8% | -5.2%
O=C(NCCc1ccc(Cl)cc1)c1ccc2c(c1)N(Cc1ccccc1F)C(=O)c1ccccc1S2(=O)=O | -17.7% | 0.8%
COc1ccc(-n2c(/C=C/c3c(C)[nH]c4ccccc34)nc3ccccc3c2=O)cc1 | 20.6% | 9.3%
O=C(NCc1ccccc1)c1cc2cc(Cl)ccc2[nH]1 | 46.5%[activator] | 36.3%[activator]
CCOc1ccc(NC(=O)CSc2oc(-c3ccc(F)cc3)nc2S(=O)(=O)c2ccc(C)cc2)cc1 | -14.3% | -15.6%
COc1ccc(NC(=O)C(=O)NCCc2csc3nc(-c4ccccc4F)nn23)cc1OC | -11.7% | -11.8%
CCCC12CN(C(C)=O)CC(C)(CN(C(C)=O)C1)C2=O | 3.4% | 6.4%
CC(NS(=O)(=O)c1ccccc1F)C(=O)Nc1cccc(C(C)C)c1 (stereo not drawn) | -6.7% | 9.2%
Cc1ccc(C(C)C)c(OCC(=O)N2CCN(CCc3ccncc3)CC2)c1 | -13.4% | -10.0%
Cc1ccc(Cl)cc1NC(=O)c1oc2ccc(S(=O)(=O)N3CCCCC3)cc2c1C | 22.7% | -8.9%
CC1(C)O[C@@H]2C[C@H]3[C@@H]4CCC5=CC(=O)C=C[C@]5(C)[C@@H]4[C@@H](O)C[C@]3(C)[C@]2(C(=O)CO)O1 | -6.6% | -14.6%
COc1ccccc1Nc1nc(N)nc(N)c1S(=O)(=O)c1ccccc1 | 2.3% | 50.7%[activator]
Cc1ccc(CSc2nnc(CCNC(=O)OC(C)(C)C)o2)cc1 | 26.7% | 10.0%
C#CCOc1ccc(C2CC(=O)Nc3c2c(C)nn3-c2nc(C)cc(C)n2)cc1 (stereo not drawn) | -8.4% | -3.0%
CC(C)c1nnc(NC(=O)C2CC(c3cccc(F)c3)=NO2)s1 (stereo not drawn) | -1.1% | -0.3%
CN(C)c1ccc(C=Nc2cccc(C(=O)c3ccccc3)c2)cc1 | -8.6% | 2.6%
CC1CCCC(NC(=O)CCC2CCCO2)C1 (stereo not drawn) | 20.5% | -5.9%
CC(c1cccc(Cl)c1)N(C)CCS(=O)(=O)CCC(N)=O (stereo not drawn) | -12.7% | -17.0%
COc1cccc(NC(=O)COc2coc(CN3CCSCC3)cc2=O)c1 | 13.7% | -12.0%
O=C(NCc1ccccc1Cl)c1cccc2c1-c1ccccc1C2=O | 9.3% | 150.7%[activator]
CCOc1ccc(C(=O)NCCc2csc(-c3cccc(C)c3)n2)cc1 | -4.9% | 7.2%
COc1ccc(-c2nc3c(C(C)(C)C)cc(C(C)(C)C)c(O)c3o2)cc1 | 14.0% | 23.9%
Cc1cc(C(=O)N2CCN(c3ccc(F)cc3)CC2)c2c(C)nn(-c3cccc(Cl)c3C)c2n1 | 7.4% | -1.1%
CSCC[C@H](NC(=O)Cc1ccccc1)c1nc2ccccc2[nH]1 | 28.2% | 10.9%
CC(C)CCC(=O)NCC(C)N1CCCC1 (stereo not drawn) | 0.3% | 1.1%
O=C(Nc1ccccc1Br)C12CC3CC(CC(Cl)(C3)C1)C2 | 6.2% | -6.3%
O=C(CSc1nnc(-c2cccs2)o1)Nc1cccc(C(F)(F)F)c1 | 12.9% | -6.0%
O=C(CSc1nc2ccccc2o1)OCC(=O)c1ccc(Br)cc1 | -5.5% | -7.6%
Cc1nn(-c2cc(N3CCN(C(=O)C(C)(C)C)CC3)ccc2[N+](=O)[O-])c(=O)c2ccccc12 | -15.7% | -24.9%
Cc1ccc2c(c1)cc(C(=O)Nc1ccc(F)cc1F)n2C | 68.2%[activator] | 7.6%
COc1ccccc1CNS(=O)(=O)c1ccc(F)c(C(=O)Nc2cc(Cl)ccc2OC)c1 | -9.3% | 169.6%[activator]
S=C(NC(=NC=C(Cl)Cl)c1ccc(Cl)cc1)Nc1ccc(Cl)cc1 | 54.5%[activator] | 76.9%[activator]
CCCCN1CC(C(=O)Nc2ccc(C(=O)Nc3ccc(C)c(C)c3)cc2)CC1=O (stereo not drawn) | 65.2%[activator] | 3.4%
Cc1cc(=O)n2c3ccccc3nc2n1CC(=O)c1ccccc1 | 5.4% | 7.1%
CCOc1ccc(CNC(=O)CSc2cc(=O)n(CC)c3ccccc23)cc1 | -17.6% | 22.0%

Structures shown so far that contain a cyano group (7):
SMILES | StopGo FLuc | 2A Renilla
N#CNC(=Nc1ccc(F)cc1)SCc1ccccc1 | 9.6% | 9.7%
Cc1ccc(C2CC(=O)CC(c3ccc(C)cc3)C2(C#N)C(N)=O)cc1 (stereo not drawn) | -3.5% | 5.5%
N#C/C(=C\c1ccc(OC(=O)c2ccc(Br)cc2)cc1)C(=O)Nc1ccccc1C(F)(F)F | 0.0% | 9.0%
COc1ccc(C2C(C#N)=C(N)Oc3n[nH]c(-c4ccc(C)cc4)c32)cc1O (stereo not drawn) | 33.2% | 13.3%
N#Cc1ccc(/C=C2\Oc3cc(O)ccc3C2=O)cc1 | 117.5%[activator] | 12.9%
N#CC1=C(N)N(c2cccc(F)c2)C2=C(C(=O)OC2)C12C(=O)N(Cc1ccccc1F)c1ccccc12 (stereo not drawn) | -15.1% | -3.4%
CC1(C)CC(=O)C2=C(C1)OC(N)=C(C#N)C2c1cccc(Cl)c1 (stereo not drawn) | -7.8% | -5.2%
